ClpP mod = qHTS Assay for Activators of ClpP | ATP-dependent Clp protease proteolytic subunit (Bacillus subtilis (strain 168)), P80244 | purified B. subtilis ClpP, FRET peptide cleavage, 20 min | Potency, µM (doses to about 57.5 µM), without a hit: top-dose activity change, negative = active | 340,000 compounds, 1.9% hits | AID 651965, 2013; active = well fitted falling curve with a large enough effect; inconclusive = small, poorly fitted or top-dose-only effect; inactive = no such curve, though single readings can be large or run the other way; note: the source files actives as falling curves though it sought activators and does not explain the sign; nearly all actives have a fitted effect of over 65% in size; many hits overshoot -100%
Target sequence (P80244 whole entry, looked up): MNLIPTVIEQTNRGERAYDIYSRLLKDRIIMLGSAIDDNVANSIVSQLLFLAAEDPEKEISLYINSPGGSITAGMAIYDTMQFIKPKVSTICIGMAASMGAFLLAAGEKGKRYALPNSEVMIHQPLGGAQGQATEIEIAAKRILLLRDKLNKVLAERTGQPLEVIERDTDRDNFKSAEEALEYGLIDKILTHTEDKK
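Buffer: 100 mM Tris/HCl pH8, 100 mM KCl, 0.05% low protease BSA, 2.5% glycerol, 0.01% Tween-20. ClpP 10 microg/mL final; 20 min RT; delta FRET normalized to ADEP and DMSO controls.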
* hit, by the source's call; ? = inconclusive; & = joins results of further samples. Potency is the fitted concentration of half-maximal effect. A portion of the library (hit frequency here may not be typical).

Start of the data: the first 5 compounds (preview)
SMILES | ClpP mod
Cc1cc(C)c2c(CC(=O)N(Cc3ccccc3)C3CCS(=O)(=O)C3)coc2c1 (centres undefined) | 0.0%
COc1cccc(C(=O)NCC(=O)OCc2cc(=O)n3c(C)csc3n2)c1 | 4.1%
O=C(NCc1ccco1)C1CCN(C(=O)N2CCOc3ccccc32)CC1 | 0.4%
COc1ccc(CCNC(=O)C(=O)Nc2ccc(C)cc2)cc1OC | 0.4%
CCOc1ccc(-c2c(C)nn3c(C)c(C(=O)Nc4cc(C)cc(C)c4)cnc23)cc1OCC | -1.8%

Main list, repeating the preview:
SMILES | ClpP mod
Cc1cc(C)c2c(CC(=O)N(Cc3ccccc3)C3CCS(=O)(=O)C3)coc2c1 (centres undefined) | 0.0%
COc1cccc(C(=O)NCC(=O)OCc2cc(=O)n3c(C)csc3n2)c1 | 4.1%
O=C(NCc1ccco1)C1CCN(C(=O)N2CCOc3ccccc32)CC1 | 0.4%
COc1ccc(CCNC(=O)C(=O)Nc2ccc(C)cc2)cc1OC | 0.4%
CCOc1ccc(-c2c(C)nn3c(C)c(C(=O)Nc4cc(C)cc(C)c4)cnc23)cc1OCC | -1.8%
Cc1ccc(C)c(CN2C(=O)c3ccccc3S(=O)(=O)c3ccc(C(=O)N4CCOCC4)cc32)c1 | -0.3%
COCCCNC(=O)CS(=O)Cc1nc(-c2cccc(C)c2)oc1C (centres undefined) | -6.1%
O=C(Nc1cccc(Cl)c1)N1CC2CCCN2c2ccccc21 (centres undefined) | -2.2%
Cc1cccn2c(=O)c(C(=O)NCc3ccccc3Cl)c(O)nc12 | -1.2%
O=S(=O)(c1ccccc1Cl)N1CCN(c2nc(-c3cccs3)nc3ccccc23)CC1 | 4.3%
Cc1ccc(NC(=O)c2cnc3cc(C)ccn3c2=O)c(C)c1 | -1.9%
C[n+]1c(/C=C/c2ccc(N)cc2)sc2ccccc21 | -6.2%
O=C(Nc1ccc(Br)cc1)Nc1nc2c(s1)CCCCCC2 | -1.3%
Cc1ccc(C)c(Nc2ncnc3c2cnn3-c2ccc(F)cc2)c1 | -12%
Cc1ccccc1NC(=O)c1ccc(Cl)c(S(=O)(=O)N2CCCCCC2)c1 | 0.2%
COc1cc(-c2noc(-c3ccc(N(C)C)c([N+](=O)[O-])c3)n2)cc(OC)c1OC | 1.2%
Cn1cc(-c2cc3n(n2)CCC(=O)N3CCCC(=O)Nc2ccc(Cl)cc2)c2ccccc21 | -0.5%
O=C(NCc1cccs1)c1ccc(Cn2c(SCc3cccc(F)c3)nc3cccnc32)cc1 | 4.8%
Cc1cn(C)c(CC(=O)NCc2ccccc2)c1C(=O)O | 0.7%
COc1ccc(N2Cc3cccc(C(=O)Nc4ccc(F)cc4)c3C2=O)cc1 | -28%
Cc1cccc(C)c1NC(=O)C1c2ccccc2OCC(=O)N1CCCN1CCOCC1 (centres undefined) | -3.5%
COc1ccc(Cl)cc1NC(=O)Cn1c(=O)oc2cc(S(=O)(=O)N3CCCCCC3)ccc21 | 2.1%
COc1ccc2[nH]c(CCc3nc4c(OC)c(OC)ccc4[nH]3)nc2c1OC | 4.6%
Cc1cc(C)cc(OCC(=O)NCC2(N3CCOCC3)CCCCC2)c1 | 0.3%
Cc1cccc(CCNC(=O)c2cc3c(s2)-c2c(C)cccc2OC3)c1 | 3.7%
O=C(Cn1ncc2c(=O)oc3ccccc3c21)NCc1ccccc1Cl | -1.2%
CCc1ccccc1NC(=O)CN(Cc1ccccc1)S(=O)(=O)c1ccc(Br)cc1 | -1.2%
COc1ccc(CCN2C(=O)CCC2(C)c2nnnn2Cc2ccccc2)cc1OC (centres undefined) | -3.1%
COc1ccc(C(CC(=O)Nc2ccc(C)c(C)c2)N2Cc3ccccc3C2=O)cc1OC (centres undefined) | -2.0%
COC(=O)c1c(NC(=O)Cc2coc3cc(C)ccc23)sc2c1CCCC2 | ?
COc1cc(OC)c(/C=C/c2cc3c4ccccc4ccc3[n+](C)c2)c(OC)c1 | 4.0%
CCCCn1nc(NC(=O)c2cccc(Cl)c2)c2cc3ccc(C)cc3nc21 | -11%
COC(=O)c1cc2sc(Cl)cc2n1Cc1nc(-c2ccc(OC)cc2)oc1C | 1.9%
COc1cc2nc(CCNCc3ccccc3)nc(NC3CCN(C)CC3)c2cc1OC | ?
CCCCCn1nnnc1C1(C)CCC(=O)N1Cc1ccco1 (centres undefined) | 0.4%
CCCCCN(CCCCC)c1ccc(/C=C/c2ccnc3ccccc23)cc1 | 1.9%
CCOC(=O)C(C)NC(=O)c1cc2c(=O)[nH]c3ccc(C)cc3c2s1 (centres undefined) | 4.1%
Cn1c(SCC(=O)NCc2ccco2)nnc1-c1ccc(NC(=O)c2ccccc2)cc1 | -3.1%
Cc1nc2ccc(S(=O)(=O)NC(CC(C)C)C(=O)N3CCN(c4ccc(F)cc4)CC3)cc2s1 (centres undefined) | -20%
CCCN1C(=O)c2oc3cc(C)cc(C)c3c(=O)c2C1c1ccc(F)cc1 (centres undefined) | -3.7%
COC(=O)c1sc2cccc(F)c2c1S(=O)(=O)N1CCN(c2ccc(C)cc2C)CC1 | -0.7%
CCCN(C)C1CN(Cc2cn(Cc3cccc(Cl)c3)nn2)S(=O)(=O)C1 (centres undefined) | -0.6%
CCOc1ccc(CCNC(=O)CCCc2nnc3n(CC(C)C)c(=O)c4sccc4n23)cc1 | -6.9%
COc1cccc(C(c2sc3nc(-c4ccco4)nn3c2O)N2CCCC2)c1 (centres undefined) | -1.9%
COc1ccc2nc(N(Cc3cccnc3)C(=O)c3ccc4c(c3)OCCO4)sc2c1 | 134%
CCCCN1CCc2nc(N3CCN(c4ncccn4)CC3)ncc2C1 | -3.9%
O=C1CCc2cc(-c3csc(-c4ccc(O)cc4)n3)ccc2N1 | ?
Cc1cc(=O)n(Cc2cccc(Cl)c2)c2c1c(C)nn2-c1ccccc1 | ?
Cc1cc(Nc2cccc(O)c2)c2cccc(Br)c2n1 | -3.9%
COc1ccc([C@H]2CC(=O)C[C@@H](CCn3cc(-c4cccnc4)nn3)O2)cc1 | -2.7%
Cc1ccc(NC(=O)CSc2nnc3[nH]c(=O)cc(C)n23)cc1Cl | -4.6%
O=C(OCc1ccccc1Cl)c1ccc(-c2nnn(Cc3ccc(F)cc3)n2)cc1 | -0.7%
COc1ccc(CCNC(=O)c2c(O)nc3cc(C)ccn3c2=O)cc1OC | -3.6%
COc1ccccc1N1CCN(C(c2ccccc2)c2nnc(-c3ccccc3Cl)o2)CC1 (centres undefined) | -3.1%
C=C(C)Cn1c(SCC(=O)c2ccccc2)nc2sc3c(c2c1=O)CCCC3 | -0.2%
COc1ccc(/C=c2\[nH]c(=O)/c(=C/c3ccc(OC)c(OC)c3)[nH]c2=O)cc1OC | 0.7%
S=c1ncc2n[nH]nc2[nH]1 | 2.0%
Cc1cc(C)c(NC(=O)CN2C(=O)CCn3nc(-c4cccn4C)cc32)c(C)c1 | -1.2%
CCOc1ccc(-c2cc(CCCC(=O)NCCc3ccc(Cl)cc3)no2)cc1 | 0.2%
O=C(COc1ccc(Cl)cc1)Nc1ccc(O)c(-c2nc3ccccc3s2)c1 | -8.5%
Carrying on:
SMILES | ClpP mod
CCOC(=O)c1ccccc1NC(=O)N1CCN2CCCCC2C1 (centres undefined) | -17%
CCc1nc2nc(C)c(NS(=O)(=O)c3ccc(C(C)(C)C)cc3)c(=O)n2[nH]1 | -3.8%
O=C(Nc1ccc(Cl)c(C(F)(F)F)c1)C1CCN(S(=O)(=O)c2cccc3nonc23)CC1 | 1.6%
O=C(CC1Sc2ccc(C(F)(F)F)cc2NC1=O)Nc1ccc(Cl)c(C(F)(F)F)c1 (centres undefined) | 0.7%
COc1cccc(CNC(=O)Cn2c(=O)oc3cc(S(=O)(=O)N4CCC(C)CC4)ccc32)c1 | -2.1%
Cc1cccc(C)c1NC(=O)CS(=O)(=O)c1nc(-c2ccc(Cl)cc2)cn1-c1ccccc1 | -2.4%
CC(=O)c1ccc(N2CCN(c3ccc(NC(=O)c4ccc(F)cc4)cc3C(=O)O)CC2)cc1 | ?
COC(=O)[C@H](NC(=O)c1cc([C@@H](NC(=O)OC(C)(C)C)C(C)C)sc1N)C(C)C | ?
CCc1nn(CC(=O)NC(C)CC)c(=O)c2cc3occc3n12 (centres undefined) | -3.6%
C[N+]1(CC(=O)c2ccc(Cl)c(Cl)c2)CCOCC1 | -0.5%
CC/C=C1/N=C2C(=O)N(C)C(=O)N=C2N(C)N1 | -3.1%
CN1C(=O)c2[nH]nc(-c3ccc(F)cc3)c2C1c1cccc(O)c1 (centres undefined) | -1.5%
CSc1ncc(C(=O)Nc2c(C)cccc2C)c(-c2ccccc2)n1 | -3.1%
CC[N+]1(CC(=O)c2ccc(I)cc2)CCCCC1 | -2.4%
C[C@H]1COc2cccc(N(C)CCO)c2S(=O)(=O)N1 | -0.5%
COc1ccc(Cl)cc1NC(=O)c1c(NCc2ccc(C)o2)sc2c1CCCC2 | -3.8%
Cc1cccc(NC(=O)c2oc3ccccc3c2NC(=O)c2cc(=O)c3ccc(C)cc3o2)c1 | 0.8%
CCc1ccc(NC(=O)CSc2nc(-c3ccccc3)c(C#N)c(=O)[nH]2)cc1 | -0.8%
COc1c(C)cccc1C(=O)Nc1cccc2ccc(C)nc12 | ?
CN(Cc1ccccc1)C(=O)c1ccc(CSc2nc3cccnc3n2Cc2ccccc2F)cc1 | 4.0%
Cc1ccc(-c2nnc(Nc3cccc(Cl)c3)c3ccccc23)cc1S(=O)(=O)N1CCOCC1 | -18%
CCOc1cc(-c2ccc3c(c2)OCO3)cc(=[O+]CC)c2c(C)oc(C)c12 | -4.0%&-4.1%
COC(=O)c1ccc(C2C(C(=O)Nc3ccccc3)=C(C)Nc3nc4ccccc4n32)cc1 (centres undefined) | -11%
CCOc1ccc(OCC)c(NC(=O)CCc2nc3cccnc3n2Cc2cccs2)c1 | -6.0%

7 entries already listed, ordered by molecular weight, ascending.
SMILES | ClpP mod
C[C@H]1COc2cccc(N(C)CCO)c2S(=O)(=O)N1 | -0.5%
CSc1ncc(C(=O)Nc2c(C)cccc2C)c(-c2ccccc2)n1 | -3.1%
CC[N+]1(CC(=O)c2ccc(I)cc2)CCCCC1 | -2.4%
COc1ccc(Cl)cc1NC(=O)c1c(NCc2ccc(C)o2)sc2c1CCCC2 | -3.8%
COC(=O)c1ccc(C2C(C(=O)Nc3ccccc3)=C(C)Nc3nc4ccccc4n32)cc1 (centres undefined) | -11%
Cc1ccc(-c2nnc(Nc3cccc(Cl)c3)c3ccccc23)cc1S(=O)(=O)N1CCOCC1 | -18%
CN(Cc1ccccc1)C(=O)c1ccc(CSc2nc3cccnc3n2Cc2ccccc2F)cc1 | 4.0%

(continued)
SMILES | ClpP mod
Cc1cc(Br)ccc1NC(=O)c1c(C)oc2ncnc(N3CCCCC3)c12 | 0.4%
O=C(O)CCc1ccc(-c2ccccc2)n1CC(=O)Nc1ccccc1C(F)(F)F | -9.5%
O=C(CNC(=O)c1ccccc1)OCC(=O)c1cccc2ccccc12 | -0.6%
CCOc1ccc(NC(=O)Cn2nc3c(cc2=O)CC(C)CC3)cc1 (centres undefined) | 0.3%
CC(NC(=O)c1ccc2c(c1)sc1nc(-c3ccccc3)cn12)C12CC3CC(CC(C3)C1)C2 (centres undefined) | ?
O=C(c1ccccc1)n1nc(-c2ccc(Cl)cc2)nc1NCc1ccco1 | 1.3%
Cc1ccc2c(CC(=O)Nc3ccc(S(=O)(=O)N4CCCCC4)cc3)coc2c1C | -4.9%
COc1ccc(CCNC(=O)CCc2cn(Cc3ccc(C)cc3)c3ccccc23)cc1OC | -6.0%
Cc1ccc(C)c(N2CCN(C(=O)c3cc4c(=O)n(Cc5cccnc5)ccc4nc3C)CC2)c1 | -26%
NC(=O)C1(N2CCCCC2)CCN(C(=O)Nc2ccc(F)cc2)CC1 | 0.4%
O=C(CCN1C(=O)c2ccccc2Sc2ncccc21)Nc1ccc(F)cc1F | 1.4%
COCCCn1cc(CN2CC(N(C)C)CS2(=O)=O)nn1 (centres undefined) | -2.4%
Cc1ccccc1CCNC(=O)C1CCN(c2nc3ccccc3nc2C(F)(F)F)CC1 | 4.2%
COc1ccc(Cl)cc1NC(=O)c1cn(C2CCCC2)c(=O)c2c1c1ccccc1n2C | -29%
Cn1cnc2c(=O)oc3ccc(S(=O)(=O)N4CCN(c5cccc(Cl)c5)CC4)cc3c21 | 0.3%
CCc1cccc(-n2nnc(-c3nsc(NC(=O)c4ccc(C)cc4)n3)c2C)c1 | 4.9%
COc1ccccc1OCC(=O)NCC1(N(C)C)CCCCC1 | -1.5%
CCOC(=O)c1[nH]c2c(c1Cc1ccccc1OC)C(=O)CC(c1ccc(OCC)cc1)C2 (centres undefined) | -1.4%
Cc1ccc(S(=O)(=O)N(CC(O)Cn2c3ccccc3c3ccccc32)c2cccc(C(=O)NCCO)c2)cc1 (centres undefined) | -2.8%
CCCN1CCN(CCCNC(=O)Cn2nc(CC)n3c(cc4occc43)c2=O)CC1 | -8.0%
Cc1nc2cc(-c3ccccc3)nn2c(C)c1CCC(=O)N1CCN(c2ccc(F)cc2)CC1 | -16%
CCc1cccc(C)c1NS(=O)(=O)c1ccc(-n2cccn2)cc1 | -3.0%
Cc1ccc(CSC2=Nc3ccccc3C3=NC(CC(=O)NCc4cccs4)C(=O)N23)cc1 (centres undefined) | ?
COc1ccc(OCC(=O)NCc2ccc3c(c2)CCN3C(=O)c2ccccc2)cc1 | -0.4%
O=C(NCc1cccs1)c1ccc(Cn2c(SCc3ccc(F)cc3)nc3cccnc32)cc1 | 3.9%
